# Rce1 inhib: yeast Ras-converting enzyme inhibition; Q03530; hit rate 0.27% among 290,000; yeast membranes, quenched prenylated peptide cleavage fluorescence; calls only;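 active = fall in fluorescence gain of 50% or more versus controls, with final raw signal at or below 3038400; inconclusive = same 50% fall but final raw signal above 3038400; inactive = fall in fluorescence gain under 50%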;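 note: plate controls were neutral control wells for no effect and wells lacking membranes for full effect; tested at 10 µM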
# MT1-MMP act inh: blocks activation of human MT1-MMP; P50281; HT1080 RFP-PRO-GFP cells, GFP/RFP ratio fluorescence, overnight; percent of plate control window, DMSO zero; GFP/RFP ratio change, % at 20 µM; hit rate 0.061% among 360,000; AID 651647;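 active = GFP/RFP ratio change of at least 30% with cell ATP level not reduced by more than half and red fluorescence within 50% of control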; note: strong numbers were not always called active
#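 Assay system: RFP-PRO-GFP reporter HT1080 cells; read-out basis: GFP/RFP fluorescence ratio; benchmarks: DMSO wells and RFP-L50D-GFP cells; doses: 20 µM single dose, 1% DMSO; schedule: overnight cell settling, then overnight compound exposure, 37 °C, 5% CO2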
# UUG fidelity: modulators of start codon recognition fidelity in yeast. hit rate 0.13% among 350,000. S. cerevisiae UUG-firefly luciferase reporter, luminescence/redox ratio. activity score, % at 18.7 µM;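 active = replicate mean at a twofold rise or more, about +100% in these data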;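 note: firefly luciferase made from a UUG start codon reports start codon fidelity; reporter light over untreated wells divided by growth signal over untreated wells; some hits fall short of that in this replicate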
# HIV Env fusion: HIV envelope-mediated fusion inhibition; HeLa-JRFL Env/CEM21 cell fusion, luciferase; inhibition, % at 12.3 µM; hit rate 1.1% among 360,000; AID 651610;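 active = mean replicate inhibition score of at least 50 and every replicate individually at or above 50; inconclusive = only one of the two criteria met; inactive = mean below 50 and not all replicates reaching 50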;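 note: 0% = plate neutral controls and 100% = maraviroc near 300 nM; one replicate is shown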
# CSC inhib: cancer stem cell inhibition; hit rate 1.1% among 300,000; inhibition, % at 7.5 µM; cancer stem cell-like cells viability, luminescence; AID 2717;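 active = mean at 75% or more and at least half the replicates too; inconclusive = mean and replicates disagree; tested in HMLE shEcad cells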;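 note: 0% = median of negative and 100% = median of positive control wells; the first replicate is given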
# eIF4H inh: inhibitors of RNA binding by human eIF4H | inhibition, % at 35 µM | eIF4H fluorescence polarization binding assay | hit rate 0.94% among 290,000 | Q15056;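 active = 50% or more with normal probe brightness, or confirmed in later tests; inconclusive = above 50% with abnormal brightness, or retests that disagree; inactive = below 50% or failed in later tests; about a fifth of its hits are not listed in these tables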;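 note: calls also rest on retests at 20 µM and on dose response follow-up; 0% = protein and probe with vehicle and 100% = probe without protein; strong numbers were not always called active; many hits fall short of the cut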
# PABP polyA inh: blocks human PABP binding to poly(A) RNA; fluorescence polarization; inhibition, % at 35 µM; hit rate 1% among 290,000; AID 2014;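 active = 50% or more with normal probe brightness, or confirmed in later tests; inconclusive = above 50% with abnormal brightness, or retests that disagree; inactive = below 50% or failed in later tests; about a fifth of its hits are not listed in these tables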;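 note: calls also rest on retests at 20 µM and on dose response follow-up; controls were probe without protein and protein plus probe with vehicle; some compounds called inactive have numbers as strong as hits; many hits fall short of the cut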
# Target sequence (P11940 whole entry, looked up): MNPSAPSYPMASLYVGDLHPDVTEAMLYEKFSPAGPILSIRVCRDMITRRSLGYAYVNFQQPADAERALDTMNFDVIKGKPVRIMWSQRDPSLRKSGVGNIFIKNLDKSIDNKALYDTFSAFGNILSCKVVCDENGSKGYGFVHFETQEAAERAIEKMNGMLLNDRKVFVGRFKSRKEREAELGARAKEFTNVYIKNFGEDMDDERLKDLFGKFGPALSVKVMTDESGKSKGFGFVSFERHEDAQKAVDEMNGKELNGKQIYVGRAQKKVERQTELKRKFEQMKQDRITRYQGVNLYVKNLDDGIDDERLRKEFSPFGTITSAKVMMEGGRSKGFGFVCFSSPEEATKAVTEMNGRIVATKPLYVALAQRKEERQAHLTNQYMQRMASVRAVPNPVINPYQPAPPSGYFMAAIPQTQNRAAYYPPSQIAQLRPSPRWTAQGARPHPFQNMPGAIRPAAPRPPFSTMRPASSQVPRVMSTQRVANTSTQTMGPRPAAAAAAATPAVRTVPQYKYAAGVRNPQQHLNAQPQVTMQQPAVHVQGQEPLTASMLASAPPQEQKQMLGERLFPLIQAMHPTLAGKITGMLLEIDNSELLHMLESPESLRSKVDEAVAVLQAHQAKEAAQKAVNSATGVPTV
# eIF4H inh retest: recorded beside eIF4H inh, whose call it bears; inhibition, %; compound at 20 µM; confirmation average;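 mean of two retest wells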
# PABP polyA inh retest: recorded beside PABP polyA inh, whose call it bears; inhibition, %; compound at 20 µM; confirmation repeats;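 mean of two retest wells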
# MT1-MMP act inh RFP: also measured in MT1-MMP act inh; calls as there; RFP signal change, %; measured here: RFP expression control read;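 0 = vehicle wells; hits needed this value within 50% of zero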
# Numbers without * were called inactive; i = inactive; ? = inconclusive; · = no result given. Some of the compounds tested; count on the stated rates, not on these rows.
SMILES,Rce1 inhib,MT1-MMP act inh,MT1-MMP act inh RFP,UUG fidelity,HIV Env fusion,CSC inhib,eIF4H inh,PABP polyA inh,others
COc1cccc(C(=O)NC2CCN(CC(=O)Nc3nccs3)CC2)c1,i,0,-2,-14,-41,9,2,-11,
O=C(c1ccccc1)c1ccccc1N1C(=O)C=CC1=O,·,1,-2,·,5,12,-11,5,
CC1CCCCC1NC(=O)CSc1ccc([N+](=O)[O-])cc1 (centres undefined),i,-1,-6,-8,26,-7,4,-8,
Clc1ccc(CNc2ccc(CNc3ncn[nH]3)cc2)c(Cl)c1,i,4,-4,·,-6,6,-3,-4,
CCOC(=O)NC(NC(=O)OCC)C(=O)c1ccc(F)cc1,i,0,1,-22,-86,-8,-7,-2,
Cc1cc(C)cc(NC(=O)Cn2nnc(C(=O)NCCc3ccccc3)c2N)c1,i,1,0,-11,-3,-6,10,8,
COc1cccc(N(CC(=O)N2CCCCCC2)S(C)(=O)=O)c1,i,-1,-2,-4,-5,-12,-2,4,
COc1ccccc1OCCNC(=O)c1ccc(C)c(S(=O)(=O)N2CCOCC2)c1,i,2,1,-11,-25,-2,·,·,
Cc1ccc(N(C(C)C(=O)Nc2ccc(S(=O)(=O)N3CCOCC3)cc2)S(C)(=O)=O)cc1 (centres undefined),i,-2,0,9,·,1,?,11*,PABP polyA inh retest=119*
Cc1cc(C)cc(N(C(=O)C(F)(F)F)C(C(=O)NC2CCCCC2)c2cccs2)c1 (centres undefined),i,10,0,-6,35,·,8,-5,
CN1CC(=O)NC1=NC(=O)c1cc(F)c(F)cc1Cl,·,1,7,·,·,·,-6,-2,
COc1ccc(NC(=O)N(CCC(C)C)C(C)c2ccccn2)c(OC)c1 (centres undefined),i,-2,3,-16,6,-10,5,1,
Cc1ccc(CCSc2ccc(F)cc2)cn1,i,3,-3,-3,-8,-12,5,-8,
CC1CC(C)CN(c2cc(N(C)CCO)c([N+](=O)[O-])c3nonc23)C1 (centres undefined),i,11,-2,1,-6,-20,-10,-8,
COc1cccc(N2CC(C(=O)Nc3ccc(C(=O)OC(C)C)cc3)CC2=O)c1 (centres undefined),i,-1,-4,-3,·,·,1,3,
Cc1ccc(N2C(=O)C3C4CC(=O)C(c5ccccc54)C3C2=O)cc1 (centres undefined),i,11,6,-13,-44,8,-5,2,
Cc1nc([N+](=O)[O-])cn1CCC#N,i,-1,-1,-20,-2,-9,-3,5,
CCOC(=O)c1cccc(NC(=O)CSc2nnc(-c3ccoc3C)n2CCOC)c1,i,1,-3,-5,-24,2,-8,-3,
O=C(O)c1cc(=O)c2cc(Cl)ccc2o1,i,1,0,9,·,-8,-4,4,
CCN(CC(=O)Nc1ccccc1C(F)(F)F)C(=O)CCS(=O)(=O)c1ccc(C)cc1,i,1,-3,·,-57,-13,·,·,
CC(=O)NC12CC3CC(C1)CC(C(=O)Nc1nc4ccc(S(C)(=O)=O)cc4s1)(C3)C2,i,-4,-3,21,?,0,10,13,
CCOC(=O)c1c(NC(=O)CSc2nc3cc(Cl)ccc3s2)sc(C(C)=O)c1C,i,·,·,·,13,4,3,-11,
COc1ccc(NC(=S)N(C(C)C)C2CCN(C(C)C)CC2)cc1Cl,i,·,·,·,·,0,47,54,eIF4H inh retest=20;PABP polyA inh retest=39
CCOC(=O)C1=C(C)N=C2SC(C)C(=O)N2C1c1ccc(C(=O)OC)cc1 (centres undefined),i,-3,-6,-5,-17,-13,2,3,
CCc1nnc(NC(=O)C2CCCN(c3nc(C)cc(C)n3)C2)s1 (centres undefined),i,6,5,0,-6,-22,4,3,
COc1ccc([C@H]2C[C@H](n3cc(C4CC4)nn3)[C@@H](O)CN2CC2CCCCC2)cc1,·,-2,-15,-3,7,·,·,·,
OCCC1CN(Cc2cccn2-c2ncccn2)CCN1Cc1ccccc1 (centres undefined),i,3,3,-14,7,·,25,11,
Cn1c(SCC(=O)NCc2ccccc2)nc2c([nH]c3ccccc32)c1=O,i,·,·,·,·,10,-7,-3,
CCC(C)NC(=O)CN(c1cc(Cl)ccc1OC)S(C)(=O)=O (centres undefined),i,4,11,6,-9,-6,1,-9,
Cc1cn([C@H]2C[C@H](O)[C@@H](/C=C/C(=O)NCc3ccco3)O2)c(=O)[nH]c1=O,·,1,6,-7,8,·,·,·,
CCOC(=O)CNC(=O)CSc1nnc(Cn2c(=O)sc3ccccc32)n1-c1ccccc1C,·,-1,3,-7,-84,14,7,2,
COc1cc2ccccc2nn1,i,-3,2,·,19,·,5,2,
COC(=O)c1ccc(C2C(C(=O)c3ccco3)=C(O)C(=O)N2c2cc(C)on2)cc1 (centres undefined),i,2,3,-17,0,1,-3,2,
CCOC(=O)c1sc(N2C(=O)C(O)=C(C(=O)c3ccco3)C2c2cccc([N+](=O)[O-])c2)nc1C (centres undefined),i,6,2,-17,-7,20,1,14,
Cc1nn(Cc2ccccc2Cl)c(C)c1C(=O)N(C)CC(=O)Nc1cccc(F)c1,·,-1,-11,0,6,·,·,·,
COc1ccccc1N1Cc2ccc(OC)c(OC)c2C1=O,i,2,5,-7,4,-12,0,4,
COCC(C)NC(=O)Cc1ccc(Cl)cc1 (centres undefined),i,7,7,·,-11,5,-5,-8,
Cc1scc(C(=O)NCc2ccco2)c1-c1ccccc1,i,-9,2,1,29,-8,1,1,
CCCC(C)c1oc(=O)cc(O)c1C (centres undefined),·,4,5,2,24,·,·,·,
Cc1onc(-c2ccccc2Cl)c1C(=O)NCCN1CCOCC1,i,0,7,·,·,-14,-4,5,
CCN(CC)CCOc1cccc(C(C)C)c1,i,-2,1,-7,·,·,6,9,
CN(C)c1ccc(-c2ccnc3c2CC(C)(C(=O)NCc2ccccc2)O3)cc1 (centres undefined),·,-3,-13,-7,4,·,·,·,
C#CCSc1ncc(S(=O)(=O)c2ccccc2)c(=O)[nH]1,i,-6,-4,·,20,-5,4,1,
O=C(CSc1nncs1)N1c2ccccc2Sc2ccccc21,i,-1,3,-23,-37,-7,-1,0,
O=C(c1cc(Cl)ccc1[N+](=O)[O-])n1cnc2ccccc21,i,-18,-9,-1,2,-1,8,2,
CN(C)CC(O)COc1cc2ccccc2cc1C(=O)N1CCCCC1 (centres undefined),i,2,3,-14,11,-15,-3,-9,
CC1CC(C)CN(CCCNC(=O)c2ccc3nc(N4CCOCC4)sc3c2)C1 (centres undefined),i,-1,2,-12,-2,-1,-6,-2,
O=C(O)/C=C/C(=O)NC1CC1,i,-4,0,·,-2,-6,-1,-19,
CS(=O)(=O)N1CCc2cc(C(=O)Nc3ccccc3)ccc21,i,3,0,-12,-12,-4,0,-9,
O=C(Cc1ccc(S(=O)(=O)N2CCOCC2)s1)Nc1cc(Cl)ccc1Cl,·,-5,-1,1,-8,·,·,·,

# The listing continues:
SMILES,Rce1 inhib,MT1-MMP act inh,MT1-MMP act inh RFP,UUG fidelity,HIV Env fusion,CSC inhib,eIF4H inh,PABP polyA inh,others
C=CCC(=O)NC1CCCc2c1cnn2-c1cc(F)cc(F)c1 (centres undefined),i,8,0,1,-2,8,0,-15,
O=S(=O)(c1ccc(Cl)nc1)N1CCCC1,·,-2,2,-10,·,-7,·,·,
C=CCNC(=O)O/N=C/c1csc([N+](=O)[O-])c1,i,2,0,-6,-7,-17,-5,2,
O=c1c2c3c(sc2n(CCN2CCCC2)c(=O)n1Cc1ccco1)CCCCC3,i,-1,-6,4,21,-17,-6,-9,
CC(=O)Nc1cccc(NC(=O)c2ccc3[nH]c(C)c(C)c3c2)c1,·,3,-3,-6,-11,2,2,-1,
NC(=O)NC(CC(=O)NNC(=O)c1cccs1)c1ccc(Cl)cc1 (centres undefined),·,2,2,-14,-15,-14,·,·,
O=c1c(Cc2ccc(F)cc2)c(O)ccn1CCCN1CCOCC1,i,-17,-8,·,4,-3,1,-10,
O=C(c1cc(C2CC2)on1)N1CCOCC1,i,2,4,-19,-128,2,-6,-12,
O=C(O)CC(CNS(=O)(=O)c1ccccc1)c1ccccc1 (centres undefined),i,2,9,-3,-13,-25,-5,-16,
O=C(CN1CCOCC1)Nc1ncc(Cc2ccccc2Cl)s1,i,6,5,-10,-22,·,-2,27,
COc1ccc(Cl)cc1NC(=O)c1ocnc1C,i,-3,0,-8,·,-2,10,2,
CCc1ccccc1NC(=O)CSc1nc2ccccc2nc1N1CCOCC1,i,-10,-3,1,23,7,-10,4,
COC(=O)c1ccc2[nH]ccc2c1,i,0,0,-9,-27,4,6,0,
O=C(CSCc1c(F)cccc1Cl)Nc1ccccc1C(=O)N1CCOCC1,i,-9,0,-4,15,-33,-1,5,
CCNC(=O)CC1C(=O)N(c2ccc(F)cc2)C(=O)N1Cc1cccs1 (centres undefined),i,-3,0,-16,14,-6,-7,4,
Cc1cccc(NC(=O)c2ccc(S(=O)(=O)N3CCCC3)cc2)c1C,i,-1,-3,-16,-5,-2,-6,11,
CC(=O)c1ccc(-c2ccc(C(=O)N3CCN(c4ccc(F)cc4)CC3)o2)cc1,i,2,-3,6,6,-11,-1,-10,
Cc1ccc2oc3nc(C)c(C(=O)O)cc3c(=O)c2c1,i,-2,1,-22,·,19,-7,5,
O=C(COc1ccccc1Cl)N1CCN(c2ccc([N+](=O)[O-])c(N3CCOCC3)c2)CC1,i,3,-3,-7,·,-8,-1,6,
O=C(Nc1ccc2c(c1)OCCO2)C(=S)NCc1ccccc1,i,3,7,·,-6,9,8,-2,
O=C(CCCN1C(=O)[C@H]2CC=CC[C@H]2C1=O)NCc1nc(-c2ccccc2)no1,i,8,0,-9,-3,7,22,-6,
Cc1ccc(CN(C)C(=O)c2ccc(S(=O)(=O)N(C)c3ccccc3)cc2)o1,·,-3,-8,17,1,·,·,·,
Cc1cccc(C(=O)NN/C=C/C(=O)c2ccccc2)c1,i,2,0,-33,-14,-10,-6,-5,
CCOC(=O)C1=CCCN(S(=O)(=O)c2ccc(C)cc2)C1,·,-1,-3,-6,0,·,·,·,
CN(Cc1cccnc1)C(=O)c1cc(COc2ccc3c(c2)CCCC3)on1,i,-10,-28,-20,·,14,-2,-1,
O=C(Cc1csc(NC(=O)Nc2ccc(Cl)cc2)n1)NC1CCCC1,i,5,-18,-11,-21,-4,·,·,
O=C(NC(NC(=S)Nc1c(Cl)cccc1Cl)C(Cl)(Cl)Cl)c1cccc([N+](=O)[O-])c1 (centres undefined),i,-13,-26,-7,-36,51,-8,-16,
Cc1cccc(NC(=O)CNC(=O)Cn2ncc(Cl)c(Cl)c2=O)c1C,·,-13,-13,-27,·,-8,·,·,
Cc1ccc(S(=O)(=O)N2CCCCCC2)cc1C(=O)NCc1ccccn1,i,1,-2,-37,2,-4,-6,-5,
CC/C(=N\NC(=O)C1CCCC1)c1cccc(Br)c1,i,1,1,-15,7,-2,-5,-9,
OCCC1CN(Cc2cccc3c2OCO3)CCN1C1CCCC1 (centres undefined),i,0,6,·,1,·,-16,-5,

# For convenience, two of the compounds above.
SMILES,Rce1 inhib,MT1-MMP act inh,MT1-MMP act inh RFP,UUG fidelity,HIV Env fusion,CSC inhib,eIF4H inh,PABP polyA inh,others
CCOC(=O)C1=CCCN(S(=O)(=O)c2ccc(C)cc2)C1,·,-1,-3,-6,0,·,·,·,
CN(Cc1cccnc1)C(=O)c1cc(COc2ccc3c(c2)CCCC3)on1,i,-10,-28,-20,·,14,-2,-1,

# Source: PubChem (several laboratories)
